# Sa RN4220 lethal: kills Staphylococcus aureus RN4220 | AID 1259311 | S. aureus RN4220 growth, OD600, 16 h | inhibition, % (no concentration beside the values) | 330,000 compounds, 0.33% hits;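 active means z-score of -3 or lower and OD600 up to 0.18 on both plates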;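 further: plate controls were untreated cells for no effect and reference antibiotic for full effect; stock transfer was 100 nL into about 80 µL; one replicate is shown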
# Mtb hypoxia inh: reduces hypoxia-regulated biosensor signal in M. tuberculosis. fluorescence inhibition, % (no concentration beside the values). 300,000 compounds, 0.1% hits. M. tuberculosis hypoxia-regulated fluorescent reporter, fluorescence;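 active means 35 to 45% if threefold the growth effect, above 45% if 1.5-fold the growth effect; inactive means the rest, general growth blockers included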;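 further: wells of about 50 µL received 100 nL stock; 0% = vehicle wells and 100% = reference inhibitor wells; whole bacteria with a GFP reporter of the hypoxia response; strong numbers were not always called active; many hits fall short of the cut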
# Autofluor counter: compound fluorescence in toxin protease inhibitor counterscreen; 360,000 compounds, 3.1% hits; compound autofluorescence counterscreen, microsphere flow cytometry; active compounds read high; fluorescence intensity (no concentration beside the values);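 active means at least 3 SD above the mean of all compounds, about 16000 in these data; inconclusive means too few beads counted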;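 further: 100 nL of 1 mM stock went into each well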
# Sa ugtP lethal: kills S. aureus RN4220 lacking UgtP; S. aureus RN4220 ugtP deletion, OD600 growth, 16 h; some inactives read as strong as hits; growth inhibition, % (concentration not given with the values); 330,000 compounds, 0.54% hits; AID 1259309;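 active means z-score under -3 and OD600 up to 0.15 on both plates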;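 further: plate controls were untreated wells for no effect and antibiotic for full effect; wells of about 80 µL received 100 nL stock; the first replicate is given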
# PrP 5UTR inh: suppresses PrP 5' UTR mRNA reporter expression; 340,000 compounds, 0.35% hits; inhibition, % (test concentration not listed); cell-based PrP 5' UTR mRNA reporter, plate reader; AID 488862;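 active means every replicate at 50% or more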;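 further: 0 = median of the neutral control wells; tested in H4 reporter cells; numbers are from one replicate; inactives centre near -14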
# BJeLR lethal: BJeLR cell viability loss; AID 1554; inhibition, % (test concentration not listed); BJeLR (HRASV12) viability, CellTiter-Glo ATP luminescence, 48 h; reference of the scale not given here; 300,000 compounds, 0.17% hits;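 active means replicate mean above 50%; inconclusive means above 50% but judged a plate artefact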;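 further: 50 nL library stock added to about 25 µL; numbers are from one replicate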
# Mtb hypoxia inh growth: recorded beside Mtb hypoxia inh, whose call it bears; growth inhibition, %; measured here: M. tuberculosis growth (absorbance);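 0% = vehicle and 100% = reference antibiotic; read after six days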
# * = called active by the depositor; ? = inconclusive; nt = no result given. This is a random part of the collection. About 4% of those tested had a hit in this group.
structure	Sa RN4220 lethal	Mtb hypoxia inh	Mtb hypoxia inh growth	Autofluor counter	Sa ugtP lethal	PrP 5UTR inh	BJeLR lethal
Cc1cc(C)n(CC(O)COc2ccccc2[N+](=O)[O-])n1 (stereo not given)	5.7	1	-2	2090	7	-7	0
COc1cc(-c2nc3n(n2)C(c2ccc(F)cc2)C2=C(CCCC2=O)N3)cc(OC)c1OC (stereo not given)	6.8	-6	13	?	-5	-27	1
COc1ccccc1C(=O)OCC(=O)NCCNC(=O)COC(=O)c1ccccc1OC	-0.3	15	2	5336	11	-22	-14
CNC(=O)c1ccccc1NC(=O)c1cccc(S(=O)(=O)N2CCCCC2)c1	1.8	8	5	3227	11	-3	-1
COc1ccc(N2CC(C(=O)NCc3nnnn3-c3ccc(C)c(C)c3)CC2=O)cc1 (stereo not given)	5.5	5	-5	3923	11	-11	4
COc1ccc(CCC(=O)NC2CCC(C)CC2)cc1 (stereo not given)	0.5	15	-3	4326	3	-8	-9
N=c1occ(C(=O)c2cc(F)ccc2O)cc1C(=O)NC1CCCCC1	12	4	7	4399	3	-38	12
Nc1cc(=O)[nH]c(SCC(=O)Nc2ccc(Br)cc2)n1	11	-2	11	nt	-4	-7	7
C=CCC1(CC=C)CCCN1C(=O)C1CCC(=O)N(CCc2ccc(Cl)cc2)C1 (stereo not given)	nt	nt	nt	7606	nt	-13	4
O=C(C1COc2ccccc2O1)N1CCN(c2ccc(F)cc2)CC1 (stereo not given)	-0.6	12	7	11286	0	-8	-2
S=C1N(c2ccccc2)C(c2cccc3ccccc23)N2CCCN12 (stereo not given)	-1.8	nt	nt	4604	16	-5	-1
CCOC(=O)NC(=O)CSc1nc2ccccc2[nH]1	-2.5	9	6	4441	6	-13	8
Cc1cccc(-c2nnc(SCC#N)n2C)c1	5.4	14	7	2476	2	-2	-9
COC(=O)c1ccc(COC(=O)c2ccc(CO)cc2)o1	7.1	-4	2	3668	8	-27	-9
Cc1cccc(C)c1NC(=O)COC(=O)C1Cc2ccccc2CN1C(=O)c1ccccc1 (stereo not given)	4.4	10	9	8942	-7	-16	-3
Cc1cccn2c(=O)c3cc(C(=O)NCc4cccnc4)c(=N)n(C(C)C)c3nc12	4.2	-5	1	nt	7	-19	3
COc1cccc(/C=N/NC(=O)c2[nH]c(C)c(C(=O)N/N=C/c3cccc(OC)c3)c2C)c1	nt	nt	nt	10444	nt	-18	-4
COCCCNC(=S)Nc1ccc(OC(F)F)cc1C	-1.1	15	7	4250	0	-21	3
COCCNC(=S)N/N=C/c1ccc([N+](=O)[O-])cc1	nt	nt	nt	6322	nt	-3	-2
CCCCc1cc(=O)oc2cc(O)ccc12	7.3	11	7	2636	5	-30	22

# Full records as entered above. Values in the order: Sa RN4220 lethal	Mtb hypoxia inh	Mtb hypoxia inh growth	Autofluor counter	Sa ugtP lethal	PrP 5UTR inh	BJeLR lethal
# S=C1N(c2ccccc2)C(c2cccc3ccccc23)N2CCCN12 (stereo not given) is listed as -1.8	nt	nt	4604	16	-5	-1
# C=CCC1(CC=C)CCCN1C(=O)C1CCC(=O)N(CCc2ccc(Cl)cc2)C1 (stereo not given) is listed as nt	nt	nt	7606	nt	-13	4

# Going on with the list.
structure	Sa RN4220 lethal	Mtb hypoxia inh	Mtb hypoxia inh growth	Autofluor counter	Sa ugtP lethal	PrP 5UTR inh	BJeLR lethal
CC(=O)Nc1ccc(-c2sc(Nc3ccccc3)n[n+]2C)cc1	6.6	6	8	3695	-1	-13	-9
O=C(c1ccc(N2CCN(C(=O)c3cccc(F)c3)CC2)cc1)c1cccc(F)c1	0.3	-2	7	5574	0	4	3
CCOC(=O)C(=NO)C(C)=NNC(=O)C(=O)Nc1ccc(Cl)cc1	4.5	3	-6	nt	3	nt	nt
COc1ccc([N+](=O)[O-])cc1NC(=S)NC(NC(=O)Cc1ccc(OC)c(OC)c1)C(Cl)(Cl)Cl (stereo not given)	-3.5	-1	-3	3756	-29	-54	-5
CC(=O)Nc1ccc(S(=O)(=O)Nc2ccc3[nH]c(=O)[nH]c3c2)cc1	-3.0	0	6	3511	0	-9	-5
O=[N+]([O-])c1cc(Br)c(Nc2ccccc2)c([N+](=O)[O-])c1	28	23	12	3507	4	-14	60*
C=CCn1c(SCC(=O)c2c(N)n(CCC)c(=O)n(C)c2=O)nc2sc(CC)cc2c1=O	4.2	nt	nt	2761	-2	12	11
COC(=O)c1c(NC(=O)CC2SC(N)=NC2=O)sc2c1CCCC2 (stereo not given)	4.6	2	6	10728	-3	-18	-11
Cc1nc(/C(N)=N/OC(=O)c2ccc(Cl)cc2)c(C(F)(F)F)o1	2.4	-4	3	6470	0	-19	-1
O=c1nc(N/N=C/c2ccco2)cn[nH]1	nt	nt	nt	2130	nt	-25	-7
COc1ccc(N2C(=O)CC(N3CCN(S(=O)(=O)c4c(C)cc(C)cc4C)CC3)C2=O)cc1 (stereo not given)	3.1	5	11	4054	4	3	nt
Cc1ccc(N(CC(=O)NCc2ccccc2)C(=O)CCC(=O)Nc2ccccn2)cc1C	2.0	15	6	5175	4	-20	-2
Cc1nnc(NC(=O)c2nc(S(=O)(=O)Cc3ccccc3C)ncc2Cl)s1	nt	nt	nt	4587	nt	-5	8
CCn1c(-c2nn(C)cc2Cl)n[nH]c1=S	2.9	10	9	2347	6	-23	-9
CC(C)(C)c1nnc(NN=Cc2ccccc2)n(N)c1=O	3.3	9	11	nt	2	nt	nt
COC(=O)Cn1c(CCS(=O)(=O)c2ccc(C)c(C)c2)nc2ccccc21	7.4	10	-1	7138	11	-29	-10
CCCCN(Cc1ccccc1)C(=O)CCN1C(=O)C2C3C=CC(C3)C2C1=O (stereo not given)	9.4	5	10	3112	7	-12	7
O=C(O)CCCn1cc(NC(=O)COc2cc(F)ccc2[N+](=O)[O-])cn1	4.2	2	-4	4793	6	-5	0
CCOc1ccc(CNC(=O)c2ccc3nc(N4CCOCC4)sc3c2)cc1	-3.4	5	8	5447	11	-33	1
O=C(CSc1nnc(-c2ccco2)o1)c1ccc([N+](=O)[O-])cc1	7.1	-4	-6	nt	-33	nt	-14

# New compounds follow:
# Every second line gives: Sa RN4220 lethal	Mtb hypoxia inh	Mtb hypoxia inh growth	Autofluor counter	Sa ugtP lethal	PrP 5UTR inh	BJeLR lethal
COC(=O)Cn1c(CN2CCN(C(=O)c3ccco3)CC2)nc2c1c(=O)n(C)c(=O)n2C
→ -2.5	-5	-9	4037	-1	-1	9
CC(=O)Nc1ccc(S(=O)(=O)NNC(=O)c2sc(=S)n(C)c2C)cc1
→ nt	nt	nt	6736	nt	-8	-14
CC(C(=O)NC1C=CS(=O)(=O)C1)N1C(=O)/C(=C/c2cccc(Cl)c2)SC1=S (stereo not given)
→ 2.3	6	4	5280	-5	-14	0
CN1C(=O)C2C(C=Cc3ccccc3)N3C(=O)CN(Cc4ccccc4)C(=O)[C@@]3(C)C2C1=O (stereo not given in full)
→ 3.7	-9	-2	nt	0	nt	nt
CCOc1ccc(C=NN2C(C)CCCC2C)cc1 (stereo not given)
→ 0.6	2	-1	nt	17	nt	nt
CN(C)c1nnnn1Cc1ccc(Cl)cc1Cl
→ 4.6	5	7	1857	-4	-17	-1
Cc1cc(C)nc(SCC(=O)Nc2ccc(S(=O)(=O)Nc3onc(C)c3C)cc2)n1
→ -0.4	nt	nt	4271	5	1	-4
Cn1c(O)c(/C=C2\C=NN=C2c2ccccc2)sc1=S
→ -11	5	0	5470	-5	-15	12
COc1ccc(NC(=S)NCc2cccn2C)cc1
→ 4.5	19	1	3326	10	-11	-2
COC(=O)[C@]1(C)N[C@H](c2ccc(SC3CCCCC3)cc2)[C@@H]2C(=O)N(C)C(=O)[C@@H]21
→ nt	nt	nt	3559	nt	-24	2
CCc1ccc(NC(=O)C2CC(=O)N=C(N)S2)cc1 (stereo not given)
→ -0.9	nt	nt	4751	0	-10	6
COc1cccc(NC(=O)[C@H](C)NC(=O)N2CCn3c2nc2ccccc23)c1
→ 6.2	14	6	4980	9	-10	-6
CCOC(=O)c1ccc(NC(=O)NCc2ccccc2)cc1
→ -1.3	-1	-1	2158	9	-15	-4
N#CC1=C(N)C(C#N)(C#N)[C@H](c2ccncc2)[C@H]2CC3(CC=C12)OCCO3
→ 6.8	12	10	10732	2	nt	-5
CC(=NCCCO)c1c(O)[nH]c(=O)[nH]c1=O
→ -1.3	12	-2	6289	4	nt	-2
O=C1c2ccccc2C(Nc2ccc(Cl)cn2)N1c1ccccn1 (stereo not given)
→ -10	8	18	4628	-4	-16	3
O=C(Cc1ccc(Cl)cc1)c1c[nH]c(C(=O)NCc2cccnc2)c1
→ 0.4	-2	2	4440	-14	-9	78*
COc1cccc(CNC(=O)c2ccncc2)c1
→ 1.5	6	1	4679	3	-7	9
COc1ccc(N2CCN(Cc3nc4c(c(=O)n(C)c(=O)n4C)n3Cc3ccccc3C)CC2)cc1
→ -15	1	10	5802	-2	-1	nt
COc1cccc(C(=O)O/N=C(\N)c2ccc(C)cc2)c1
→ -1.2	13	8	3322	10	-71	-11
COc1ccc(CN2CCCCC2C)cc1C (stereo not given)
→ -16	23	-20	3155	-5	-18	6
O=C(CSc1nc2ncc(Cl)cc2[nH]1)Nc1ccccc1-c1ccccc1
→ 3.1	0	-2	4708	-12	6	-10
O=C(CSCc1cccc(Cl)c1)NN=Cc1ccc(OCC(=O)N2CCCCC2)cc1
→ 0.2	4	6	nt	-17	nt	nt
Cn1cccc1/C=C1\SC(=S)N(NC(=O)c2ccccc2O)C1=O
→ 10	11	4	4980	0	-9	-4
O=C(NC1CC1)C1=C[C@H](c2c[nH]c3ccccc23)C[C@H](OCCCCO)O1
→ nt	nt	nt	4547	nt	-26	4
O=C(COC(=O)c1cc([N+](=O)[O-])ccc1NCc1ccccc1)NCc1ccccc1Cl
→ -0.4	3	2	2469	-7	-8	9
CCN1C(=O)CC(c2ccccc2)CC1=O
→ 4.9	13	3	3876	0	1	-5
CC(=O)N1CCN(C(=O)c2c(-c3ccccc3)noc2C)CC1
→ 4.1	10	9	2919	7	-21	nt
Cc1ccc(Cn2nc(C)c(NC(=O)CSc3nc4c(c(C(F)(F)F)n3)CCc3ccccc3-4)c2C)cc1
→ 8.7	9	2	2379	11	-4	8
CN(C)CCCNC(NC(=O)c1cccs1)C(Cl)(Cl)Cl (stereo not given)
→ 5.2	0	1	7107	12	10	2

# Structural class: the compounds so far containing a CF3 group (two)
# Every second line gives: Sa RN4220 lethal	Mtb hypoxia inh	Mtb hypoxia inh growth	Autofluor counter	Sa ugtP lethal	PrP 5UTR inh	BJeLR lethal
Cc1nc(/C(N)=N/OC(=O)c2ccc(Cl)cc2)c(C(F)(F)F)o1
→ 2.4	-4	3	6470	0	-19	-1
Cc1ccc(Cn2nc(C)c(NC(=O)CSc3nc4c(c(C(F)(F)F)n3)CCc3ccccc3-4)c2C)cc1
→ 8.7	9	2	2379	11	-4	8

# Taken from above.
# `O=C(Cc1ccc(Cl)cc1)c1c[nH]c(C(=O)NCc2cccnc2)c1` – Mtb hypoxia inh: -2
# `O=C(CSCc1cccc(Cl)c1)NN=Cc1ccc(OCC(=O)N2CCCCC2)cc1` – Sa ugtP lethal: -17
# `CC(=NCCCO)c1c(O)[nH]c(=O)[nH]c1=O` – Mtb hypoxia inh growth: -2
# `CCc1ccc(NC(=O)C2CC(=O)N=C(N)S2)cc1` (stereo not given) – Autofluor counter: 4751

# Next section
# Every second line gives: Sa RN4220 lethal	Mtb hypoxia inh	Mtb hypoxia inh growth	Autofluor counter	Sa ugtP lethal	PrP 5UTR inh	BJeLR lethal
O=C(NCCS(=O)(=O)NCc1ccco1)c1ccccc1
→ -0.5	-11	2	?	0	-11	3
COc1ccc(S(=O)(=O)Nc2cccc3c2OC(CN(C)C(=O)Nc2c(C)noc2C)C(C)CN(C(C)CO)C3=O)cc1 (stereo not given)
→ 4.1	6	3	nt	1	nt	nt
Cc1ccccc1-c1nnn(CC(=O)Nc2cccc(S(N)(=O)=O)c2)n1
→ 8.7	-4	15	3200	1	-15	-1
C[C@@H](NC(=O)[C@@H]1Cc2ccccc2CN1)C(=O)NCC1CCCO1 (stereo not given in full)
→ 4.9	-1	-8	4444	7	-4	-4
Cc1nn(C(C)C(=O)NCCCc2ccccc2)c(=O)c2cc3occc3n12 (stereo not given)
→ 4.5	-4	6	3845	-7	-10	-5
